LANA-nucl inh = inhibitors of KSHV LANA-nucleosome binding, primary screen, biochemical, fluorescence polarization, FITC-LANA1-23, chicken nucleosomes; FITC-LANA1-23 / chicken nucleosome fluorescence polarization; active compounds read low; z-score (test concentration not listed); actives 0.3% (n = 51,000);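 active = both repeat wells score below -2 in polarization z-score versus plate sample wells, excluding overly bright wells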;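 note: 100 nL library stock added to about 30 µL; numbers are from one replicate; some results filed as inactive read as strong as hits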
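Assay system: FITC-LANA peptide and chicken nucleosomes; input: 240 nM purified chicken nucleosomes (480 nM peptide binding sites), final; also added: 50 nM FITC-LANA1-23 probe; medium: TEN-BT buffer, pH 7.5; doses: pin-transferred compound, 100 nL; times: 10–45 min, room temperature; technique: fluorescence polarization; replication: duplicates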
Ab BasE inh = BasE siderophore enzyme inhibitors, primary screen, biochemical, Acinetobacter baumannii ATCC 17978, fluorescence polarization; inhibition, % (test concentration not listed); actives 0.1% (n = 84,000); purified BasE, fluorescence polarization binding displacement;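 active = both replicates above 25% with normal brightness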;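 note: 0% = negative plate control signal and 100% = positive plate control signal; stock transfer was 100 nL into about 30 µL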
An asterisk follows results filed as active. Not all compounds are listed (hit frequency here may not be typical).

For CC(C(=O)NCc1ccco1)N1C(=O)c2ccccc2C1=O (stereo not given) the results were LANA-nucl inh 0.3 and Ab BasE inh 0.5.
Screening Cc1cc(C)n2nc(SCC(=O)NC(C)C(C)C)nc2n1 (stereo not given) returned Ab BasE inh 0.2.
`CCOC(=O)Nc1ccc2c(CN3C(=O)NC(CC)(CC)C3=O)cc(=O)oc2c1` gave Ab BasE inh -1.9.
`O=C1CC(NC(=O)C(F)(F)F)=NN1c1ccccc1` gave LANA-nucl inh -1.2 and Ab BasE inh 2.2.
For CCSc1nnc(SCC(=O)Nc2ccc(S(=O)(=O)N3CCCC3)cc2)s1 the results were Ab BasE inh -1.5.
`O=C(Nc1ccccn1)C12CC3CC(CC(C3)C1)C2` gave LANA-nucl inh -0.27 and Ab BasE inh 0.7.
For COc1ccc(NC(=O)CSc2nc3c(cc2C#N)CCC3)cc1 the results were LANA-nucl inh -0.2 and Ab BasE inh 2.5.
COc1coc(C(=O)O)c1OC was read as LANA-nucl inh 0.76 and Ab BasE inh -0.6.
For NC(=O)c1ccc(OCC2CCCO2)cc1 (stereo not given) the results were Ab BasE inh 0.0.
`Cc1cc(C)n2nc(CNC(=O)Nc3ccccc3C(F)(F)F)nc2n1` gave LANA-nucl inh -0.28 and Ab BasE inh 0.2.
COc1ccc(C2CC3(CC(C)(C)NC(=O)N3)Oc3cc(O)ccc32)cc1 (stereo not given) was read as LANA-nucl inh -0.72 and Ab BasE inh 1.5.
CCOC(=O)c1c(NC(=O)COC(=O)Cc2cn3ccsc3n2)sc(C)c1Cc1ccc2c(c1)OCO2 was read as Ab BasE inh 2.8.
`COc1cccc(NS(=O)(=O)c2ccc3[nH]cc(C(=O)N4CCCCC4C)c(=O)c3c2)c1` (stereo not given) gave LANA-nucl inh 0.61 and Ab BasE inh -1.8.
`O=C(NCc1cccs1)c1cc2cccc3c2n1CCS3` gave LANA-nucl inh -0.39 and Ab BasE inh -1.1.
For CC(C)Nc1nc(-c2ccccc2)nc2ccccc12 the results were Ab BasE inh 1.1.
Screening O=C(Cc1ccccc1)NCCSc1ccccc1 returned LANA-nucl inh -0.089 and Ab BasE inh 4.6.
For COc1ccccc1/C=C/C=N\N1CCN(c2ccccc2)CC1 the results were Ab BasE inh 4.8.
For Cc1ccc(S(=O)(=O)c2c(N)n(Cc3ccco3)c3nc4ccccc4nc23)cc1 the results were LANA-nucl inh -1.6 and Ab BasE inh -0.6.
For CCOC(=O)c1ccc(NC(=O)C(CC(C)C)N2C(=O)C3C4C=CC(C4)C3C2=O)cc1 (stereo not given) the results were LANA-nucl inh 0.037 and Ab BasE inh -1.4.
Screening N#CC(c1ccccc1)c1cccc(Cl)n1 (stereo not given) returned LANA-nucl inh -0.3.
CCC(Cc1ccccc1)NC(=O)c1ccco1 (stereo not given) was read as LANA-nucl inh 0.36 and Ab BasE inh 0.2.
O=C(CN1C(=O)CCC1=O)Nc1nc2ccccc2s1 was read as LANA-nucl inh 0.93 and Ab BasE inh 2.0.
O=C(NC(=O)C(F)(F)F)NC1(C(F)(F)F)OCCO1 was read as Ab BasE inh 1.2.
`CCOc1cc(C(=O)CCC(=O)NCc2ccco2)ccc1O` gave Ab BasE inh -3.2.
`Cc1cc(C)c(C#N)c(=N)o1` gave Ab BasE inh 3.4.
Screening CCNC(=O)C1CCCc2c1[nH]c1ccc(Cl)cc21 (stereo not given) returned Ab BasE inh 3.5.
`CCOC(=O)Nc1oc2ccccc2c(=O)c1CN1CCOCC1` gave Ab BasE inh 0.2.
COc1ccc2c(C)nc(/N=C(/N)NC(=O)c3ccccc3)nc2c1 was read as LANA-nucl inh 0.27 and Ab BasE inh -1.3.
Screening OCc1cn(CC(O)COc2ccccc2Cl)c2ccccc12 (stereo not given) returned LANA-nucl inh -0.44.
For COC(=O)CSc1nnc2[nH]c(=O)cc(C)n12 the results were LANA-nucl inh 0.88 and Ab BasE inh 1.8.
Screening CCOC(=O)N1CCN(C(=O)Cc2cccs2)CC1 returned LANA-nucl inh 1.5 and Ab BasE inh -1.2.
`O=S(=O)(c1ccccc1)c1ccc2c(c1)Sc1ccccc1N2` gave Ab BasE inh 0.7.
`N#Cc1ccc2c(c1)nc1c3cccc4cccc(c(=O)n21)c43` gave LANA-nucl inh -0.43 and Ab BasE inh 1.4.
Screening CC(Oc1ccc(Cl)cc1)c1ccc(C#N)c(=O)[nH]1 (stereo not given) returned LANA-nucl inh -0.6.
`O=C1C2C(C(=O)N1CCO)C1C=CC2C12CC2` (stereo not given) gave LANA-nucl inh -1 and Ab BasE inh 0.7.
For c1ccc2c(c1)nc(N1CCOCC1)c1ccccc12 the results were LANA-nucl inh 0.53 and Ab BasE inh -1.8.
Cc1ccc(COc2ccc3c(c2)OCO3)cc1 was read as Ab BasE inh 1.1.
`CC1CCc2c(nc3nc[nH]n3c2=O)C1` (stereo not given) gave LANA-nucl inh 0.056 and Ab BasE inh -2.2.
`N#Cc1cn(CC(=O)Nc2ccc(Br)cc2)c2ccccc12` gave LANA-nucl inh -0.068 and Ab BasE inh -0.4.
`Cc1nc(SC(C)C(=O)NC2CC2)n(C2CCCC2)c1C` (stereo not given) gave Ab BasE inh 0.7.
COC(=O)C1=NN(c2c(C)cccc2Cl)C(=O)C1 was read as Ab BasE inh -1.1.
`N#CCCn1cc(C(=O)CN2C(=O)NC(c3ccccc3)(c3ccccc3)C2=O)c2ccccc21` gave Ab BasE inh -0.6.
Screening CC(C)n1nc(C(=O)OCc2cc(=O)n3c4c(sc3n2)CCCC4)c2ccccc2c1=O returned Ab BasE inh 1.0.
`Cc1cc(N2C(=O)c3ccccc3C2=O)no1` gave LANA-nucl inh -1.4 and Ab BasE inh 1.5.
Cc1nc(/C(N)=N/O)c(C(F)(F)F)o1 was read as LANA-nucl inh -1.7 and Ab BasE inh 1.2.
N#CC(c1ccc(Cl)cc1)c1ncc(C(F)(F)F)cc1Cl (stereo not given) was read as LANA-nucl inh 0.068.
Cc1ccc(-n2ncc3c(=S)nc[nH]c32)cc1 was read as LANA-nucl inh 1.7 and Ab BasE inh 0.4.
For N#CC(C#N)=C1C=CN(c2ccc(Br)cc2)C=C1 the results were Ab BasE inh -0.7.
Screening O=C1CC(NC(=O)N2CCn3cccc3C2c2ccccc2F)CN1c1ccccc1 (stereo not given) returned LANA-nucl inh 1.1 and Ab BasE inh 0.9.
For O=C(CN1CCSc2ccccc21)Nc1ccc2c(c1)OCCO2 the results were Ab BasE inh 1.9.
CCCCCCCC1CCC(=O)O1 (stereo not given) was read as Ab BasE inh -0.3.
CCCN1CCN(C(=O)c2cccc3c2C(=O)N(CCOC)C3)CC1 was read as LANA-nucl inh -0.61 and Ab BasE inh 1.7.
Screening O=C1S/C(=C\c2ccccc2)C(=O)N1CCN1C(=O)S/C(=C\c2ccco2)C1=O returned Ab BasE inh 0.9.
Screening Cc1cc(C)nc(NS(=O)(=O)c2ccc(NC(=O)C3(c4ccccc4)CCOCC3)cc2)n1 returned Ab BasE inh -4.3.
For N#C/C(=C\c1cn(Cc2ccccc2)c2ccccc12)C(=O)Nc1ccccc1O the results were LANA-nucl inh 0.29 and Ab BasE inh 0.1.
O=c1c(-c2nc(-c3ccc(Cl)cc3)no2)cnc2n1CCS2 was read as LANA-nucl inh -0.89 and Ab BasE inh -1.6.
`CC1=C(C#N)C(c2ccc(C#Cc3ccccc3)s2)C2=C(CCCC2=O)N1` (stereo not given) gave LANA-nucl inh 0.35 and Ab BasE inh -3.6.
For CN(C)c1ccc(/C=C2\SC(=O)N(Cc3ccccc3)C2=O)cc1 the results were Ab BasE inh -0.3.
`CSc1ncc(Cl)c(C(=O)Nc2sc3c(c2C(=O)NCc2ccco2)CCCC3)n1` gave LANA-nucl inh 1.2 and Ab BasE inh -3.9.
`Cc1ccc(NC(=O)c2sc3nc(SCC(=O)NCc4ccco4)n(N)c(=O)c3c2C)c(C)c1` gave LANA-nucl inh 0.071 and Ab BasE inh 0.5.

Structural class, the compounds so far containing an NH in an aromatic ring.
`COc1cccc(NS(=O)(=O)c2ccc3[nH]cc(C(=O)N4CCCCC4C)c(=O)c3c2)c1` (stereo not given) gave LANA-nucl inh 0.61 and Ab BasE inh -1.8.
Screening CCNC(=O)C1CCCc2c1[nH]c1ccc(Cl)cc21 (stereo not given) returned Ab BasE inh 3.5.
For COC(=O)CSc1nnc2[nH]c(=O)cc(C)n12 the results were LANA-nucl inh 0.88 and Ab BasE inh 1.8.
Screening CC(Oc1ccc(Cl)cc1)c1ccc(C#N)c(=O)[nH]1 (stereo not given) returned LANA-nucl inh -0.6.
`CC1CCc2c(nc3nc[nH]n3c2=O)C1` (stereo not given) gave LANA-nucl inh 0.056 and Ab BasE inh -2.2.
Cc1ccc(-n2ncc3c(=S)nc[nH]c32)cc1 was read as LANA-nucl inh 1.7 and Ab BasE inh 0.4.

The main list resumes with the 2 entries that preceded the break.
`CSc1ncc(Cl)c(C(=O)Nc2sc3c(c2C(=O)NCc2ccco2)CCCC3)n1` gave LANA-nucl inh 1.2 and Ab BasE inh -3.9.
`Cc1ccc(NC(=O)c2sc3nc(SCC(=O)NCc4ccco4)n(N)c(=O)c3c2C)c(C)c1` gave LANA-nucl inh 0.071 and Ab BasE inh 0.5.
`O=C(O)c1ccc(S(=O)(=O)C(F)F)cc1` gave Ab BasE inh 1.9.
For COc1ccc(C(=O)Nc2cc3c4c(c2)CCC(=O)N4CCC3)cc1OC the results were LANA-nucl inh -1.1 and Ab BasE inh -0.1.
`N#CCCSc1nnc(Cc2cccc3ccccc23)n1C1CCCCC1` gave Ab BasE inh -0.5.
`Cc1[nH]c2ccccc2c1C(=O)COC(=O)c1ccncc1` gave Ab BasE inh -2.4.
`Cc1ccc(-c2nn(C(C)(C)C)c3ncnc(N)c23)cc1` gave LANA-nucl inh -0.59 and Ab BasE inh 2.9.
Screening Cc1cc(-n2c(C)cc(/C=C/C(=O)N3CCN(Cc4cccs4)CC3)c2C)no1 returned Ab BasE inh -2.3.
O=C(NCc1ccco1)C1CCN(c2nc3ccccc3n2Cc2ccccc2F)CC1 was read as LANA-nucl inh 0.48 and Ab BasE inh 4.3.
Screening COC(=O)CN1C(=O)COc2ccc(Cl)cc21 returned LANA-nucl inh 1.1 and Ab BasE inh -0.9.
For c1ccc(-c2nc(COc3ncnc4sccc34)cs2)cc1 the results were Ab BasE inh -5.2.
`COC(=O)C1(c2ccccc2)NC(c2ccccc2C)C2C(=O)N(C)C(=O)C21` (stereo not given) gave LANA-nucl inh 0.13 and Ab BasE inh -2.1.
For CC1CCCCN1C(=O)c1cc(=O)c2ccccc2o1 (stereo not given) the results were Ab BasE inh 1.6.
For CCCC(=O)C1=C(N2CCN(C3=C(C(=O)CCC)C(=O)CC(C)(C)C3)CC2)CC(C)(C)CC1=O the results were LANA-nucl inh 0.029 and Ab BasE inh -1.7.
`O=S1(=O)CCN(Cc2ccc3c(c2)OCCCO3)CC1` gave LANA-nucl inh -0.11.
For CCn1c(=O)c(C(=O)Nc2ccc(Cl)cn2)c(O)c2ccccc21 the results were LANA-nucl inh 0.38 and Ab BasE inh -0.3.
CCOC(=O)C1=C(C)Nc2ccccc2N=C1NC(=O)C1CC2C=CC1C2 (stereo not given) was read as Ab BasE inh 0.0.
For C[n+]1ccccc1-c1nc2ccccc2s1 the results were Ab BasE inh -0.6.
For COc1ccccc1NC(=O)NCc1nc2nc(C)cc(C)n2n1 the results were LANA-nucl inh 0.48 and Ab BasE inh -0.8.
Clc1ccc(-c2nnn3c2nc(NCc2ccco2)c2ccccc23)cc1 was read as LANA-nucl inh 0.4 and Ab BasE inh -2.2.
Screening CCn1c(CCc2ccccc2)nnc1SCC(=O)Nc1cccc(OC)c1 returned LANA-nucl inh -0.43 and Ab BasE inh -2.4.
Cc1cc(Cl)ccc1OC(C)C(=O)OCC(=O)Nc1ccc2[nH]c(=O)[nH]c2c1 (stereo not given) was read as Ab BasE inh 0.6.
For O=S(=O)(c1ccc(F)cc1F)n1nccc1-c1ccc(-c2ccc(F)cc2F)o1 the results were Ab BasE inh 4.7.
Screening Cc1ccc(C#N)c(SCC(=O)O)n1 returned LANA-nucl inh -0.31 and Ab BasE inh 1.4.
Screening O=C(O)CCc1ccccc1O returned Ab BasE inh 2.0.
Screening O=C1CCc2cc(C(=O)CSc3nnnn3C3CCCC3)ccc2N1 returned Ab BasE inh -0.6.
CC1C(O)=C(c2nc3ccccc3[nH]2)C(=N)N1c1ccccc1 (stereo not given) was read as LANA-nucl inh 0.77 and Ab BasE inh -3.8.
`O=C1C(C=NCCCN2CCOCC2)=C(O)c2ccccc21` gave LANA-nucl inh 0.62 and Ab BasE inh 2.8.
`CN1C2=C(C#N)C(=O)C(c3ccccc3)N2c2ccccc21` (stereo not given) gave Ab BasE inh 1.1.
For COc1ccc(O)c(-c2cn[nH]c2-c2cccs2)c1 the results were LANA-nucl inh -0.84 and Ab BasE inh 2.1.
Cc1ccccc1CN1C(=O)C(O)(CC(=O)c2ccc3c(c2)CCCC3)c2ccccc21 (stereo not given) was read as Ab BasE inh 1.7.
Screening O=C(COC(=O)Cn1cnc2ccccc2c1=O)NC1CCCC1 returned Ab BasE inh 0.0.
`COc1ccc(-n2cc(C#N)c(=O)[nH]c2=O)cc1` gave LANA-nucl inh -0.43 and Ab BasE inh 1.5.
For CCc1nc2ccccc2c2nc(NC(=O)C(F)(F)F)nn12 the results were Ab BasE inh -1.3.
Screening CCOC(=O)COc1nc(-c2ccccc2)sc1C(=O)OCC returned LANA-nucl inh 1.4 and Ab BasE inh -6.4.
For Cc1cc(C)nc(SCC(=O)N2CCOCC2)n1 the results were LANA-nucl inh -0.55 and Ab BasE inh 2.3.
`Cc1ccc(Nc2nc(N)nc(COC(=O)CN3CCCC3=O)n2)cc1` gave Ab BasE inh 1.2.
For Oc1oc(-c2ccc(Br)cc2)nc1C=Nc1ccccc1 the results were Ab BasE inh 3.7.

Screening results: PubChem BioAssay, ICCB-Longwood Screening Facility, Harvard Medical School
